NPYLR7 ag = activates Aedes aegypti NPYLR7 receptor | 270,000 tested, 0.15% active | HEK293T NPYLR7/Galpha15, GCaMP6s calcium fluorescence | activation, % at 10 µM; in the data active = activation above about 40%;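 note: 0% = vehicle and 100% = reference agonist at the receptor; some compounds past the cut are filed as inactive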
NPYLR7 ag max-min = second read-out of NPYLR7 ag, no call of its own (marks repeat the call); activation, %; measured here: Max-Min RFU normalised activation; some inactives read as strong as hits;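 span of the calcium signal over five minutes; 0% = vehicle and 100% = native peptide agonist; compound fluorescence can raise it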
The depositor's hits bear a star; & = joins results of further samples.

Each structure is followed by: NPYLR7 ag | NPYLR7 ag max-min
Cc1nc2sccn2c1-c1nc(-c2cccc3ccccc23)cs1
→ 6 | 2
COC(=O)c1cc(CN(C)C(=O)C2CCCN(C(=O)N3CCCC3)C2)oc1C (configuration not stated)
→ 16 | 15
COc1ccc(C2=NOC(CN(Cc3cccc(F)c3)C(=O)NC(C)(C)C)C2)cc1 (configuration not stated)
→ 18 | 26
Cc1cc(NC(=O)N2CCCC2c2ccc(C(C)(C)C)cc2)no1 (configuration not stated)
→ 5 | 1
Oc1ccccc1CN1CCC(c2cc(-c3ccccc3Cl)n[nH]2)CC1
→ 14 | 1
CC(C)(Oc1ccc(Cl)cc1)C(=O)N1CCN(c2ncnc3c2nnn3-c2ccccc2)CC1
→ -18 | -26
Cc1noc(C)c1CSc1nnc(C(F)(F)F)n1C
→ 5 | 3
O=C1CN(C(=O)/C=C/c2ccc(OC(F)(F)F)cc2)c2ccccc2N1
→ 12 | 7
CCCC[n+]1c(C)cc(C=C2Sc3ccccc3N2C)cc1C
→ 198* | 141*
Cc1cnccc1NCCn1ccnc1-c1ccccn1
→ -1 | -3
O=S(=O)(c1ccc(Cl)cc1)C(F)F
→ 0 | 6
Cc1nc(CN2CCN(Cc3cccc(C(=O)Nc4cccnc4)c3)CC2)no1
→ 2 | -4
CCCCN1C(=O)C(=Cc2c(NCCCOC)nc3ccccn3c2=O)SC1=S
→ -1 | -2
COc1cccc(CNC(=O)C2CCN(C(=O)[C@@H](Cc3ccccc3)NC(=O)COC3C[C@@H](C)CC[C@@H]3C(C)C)CC2)c1 (some centres not stated)
→ 3 | 14
c1ccc(-c2cn([C@H]3CO[C@H]4[C@@H]3OC[C@@H]4NCc3c[nH]c4ccccc34)nn2)nc1
→ -3 | -8
CCOC(=O)C(=O)N1CCC(c2nc(-c3ccc(F)c(F)c3)no2)CC1
→ -5 | -9
Cn1nc(C(=O)Nc2nc(-c3ccc4c(c3)OCCO4)cs2)ccc1=O
→ 11 | 4
CC1C(=O)N(c2cccc(F)c2)CCN1C(=O)c1cccs1 (configuration not stated)
→ -1 | 0
CSc1nncc(-c2ccc(F)c(F)c2)n1
→ 3 | 0
CC(C)CN1CC(OCc2cccnc2)CN(C(=O)c2cc(C3CC3)nc3ccccc23)CC1=O (configuration not stated)
→ 7 | 5

Laid out differently: entries from further up.
smiles	NPYLR7 ag	NPYLR7 ag max-min
O=C1CN(C(=O)/C=C/c2ccc(OC(F)(F)F)cc2)c2ccccc2N1	12	7
Cc1cc(NC(=O)N2CCCC2c2ccc(C(C)(C)C)cc2)no1 (configuration not stated)	5	1

Single records, as listed above. Order of values: NPYLR7 ag | NPYLR7 ag max-min
Oc1ccccc1CN1CCC(c2cc(-c3ccccc3Cl)n[nH]2)CC1 is listed as 14 | 1
Cn1nc(C(=O)Nc2nc(-c3ccc4c(c3)OCCO4)cs2)ccc1=O is listed as 11 | 4
O=C1CN(C(=O)/C=C/c2ccc(OC(F)(F)F)cc2)c2ccccc2N1 is listed as 12 | 7
CCOC(=O)C(=O)N1CCC(c2nc(-c3ccc(F)c(F)c3)no2)CC1 is listed as -5 | -9
Cc1nc2sccn2c1-c1nc(-c2cccc3ccccc23)cs1 is listed as 6 | 2

Later entries:
Each structure is followed by: NPYLR7 ag | NPYLR7 ag max-min
COc1ccc(-c2nc3oc4ccccc4c(=O)c3c(=O)n2Cc2ccccc2)cc1
→ 8 | 4
CN(c1ccc(C(N)=O)nn1)C1CCc2ccccc2C1 (configuration not stated)
→ -7 | -7
O=C(Cc1cccs1)N1CCN(c2nnnn2-c2ccccc2)CC1
→ 8 | 9
C[C@H]([C@@H](O)c1ccc(O)cc1)N1CCC(Cc2ccccc2)CC1 (racemic)
→ -9 | -12
Cc1cccc(-n2nc3c(c2NC(=O)Cc2cccc4ccccc24)CS(=O)(=O)C3)c1C
→ -5 | -5
Cc1cccc(C(=O)N(Cc2cc(N)ccc2N(C)C)CC2CC2)c1
→ -6 | -3
CS(=O)(=O)NC1CCN(CCCc2cccc3ccccc23)CC1
→ 1 | -6
COc1ccc(/C=C(\C#N)c2nn(CCO)c(N)c2C#N)c(OC)c1
→ 0 | -5
COc1cccc(CC2(CO)CCCN(CC3=Cc4cc(Cl)ccc4OC3)C2)c1 (configuration not stated)
→ 5&13 | 6&17
O=C(NCc1ccc(Br)cc1F)c1ccc2nncn2c1
→ 12 | 10
Cc1cccc(C(=O)Nc2nnc(CC(=O)N/N=C\c3ccncc3)s2)c1
→ -8 | -4
COc1cccc(/C=C2/C(=O)N(c3ccc(Cl)c(Cl)c3)N=C2C)c1
→ 11 | 15
COc1ccc(N2CCN(Cc3cc(=O)c(OC)cn3CC(=O)NCc3ccc(C)cc3)CC2)cc1
→ 0 | 0
O=C(NCCOc1ccc2nnc(-c3cccc(F)c3)n2n1)Nc1ccccc1Cl
→ 3 | 0
CC(=O)C1=C(c2ccc(C)c(C)c2)N(C(C)=O)n2c(nnc2-c2ccccc2)S1
→ 4 | 0
c1ccc(Cn2c(SC3CCCCC3)nc3ccccc32)cc1
→ -1 | 0
COCCCNS(=O)(=O)c1cc(Cl)ccc1Cl
→ 0 | -2
CCOC(=O)c1cc(-c2ccc(OC)cc2)n(-c2ccc(C(=O)N3CCC(Cc4ccccc4)CC3)cc2)n1
→ 3 | 1
COc1cc(CNc2ccnc3c(-c4cccc(OC(F)(F)F)c4)cnn23)cc(OC)c1OC
→ -2 | -8
O=C(CN(CCN1CCOCC1)C(=O)Nc1cccc2ccccc12)N(Cc1ccccc1)Cc1cccs1
→ 2 | 9
COc1ccc2c(c1OC)C(=O)OC2[C@H]1c2c(cc3c(c2OC)OCO3)CCN1C (some centres not stated)
→ -5&-7 | -9&-11
COC(=O)C1=C(C)NC2=C(C(=O)CC(c3ccccc3)C2)C1c1ccc(C)o1 (configuration not stated)
→ 4 | 3
Cc1cc(NC(=O)CSc2nc(=O)n(Cc3ccccn3)c3c2CCC3)no1
→ -5 | -6
COc1ccc2nc(N=Cc3nc(-c4ccccc4Br)oc3O)sc2c1
→ -1 | 5
COc1ccc(C(=O)N2CCN(CC(OCc3cccc(C)c3)c3ccc(Cl)cc3)CC2)c(OC)c1 (configuration not stated)
→ 2 | -1
CSc1nnc2n1CCCN2C(=O)Nc1ccc(Cl)c(Cl)c1
→ -6 | -5
COc1cc(Br)c(/C=C2\NC(=S)NC2=O)cc1OC
→ -6 | -8
CC(C)(O)C#Cc1ccc(C(=O)N2Cc3ccccc3OC(c3ccccc3)C2)cc1 (configuration not stated)
→ 14 | 6
COC(=O)CSC1=NS(=O)(=O)c2ccccc2N1
→ 5 | 0
Cc1ccccc1C1=NC(C)(CC(=O)NCc2ccccc2)ON1C (configuration not stated)
→ 8 | 3
Cc1cc2n(n1)CC(CNC1CCN(Cc3ccncc3)CC1)CN2 (configuration not stated)
→ 4 | 4
Cn1c(SCC(=O)N2N=C(c3cccs3)CC2c2ccco2)nnc1-c1ccco1 (configuration not stated)
→ 1 | 9
Cc1cccc(OCC(=O)N2CCOC(COCc3cccc(C(F)(F)F)c3)C2)c1C (configuration not stated)
→ 4 | 2
Cc1ccc(C2c3ccsc3CCN2C(=O)CN(C(=O)c2ccccc2Br)C2CC2)cc1 (configuration not stated)
→ -5 | 7
CCOc1ncccc1CN1CCCC(C(=O)NCC2CCCCC2)C1 (configuration not stated)
→ -10 | -16
CN1CCN(C(CNS(=O)(=O)c2ccc(F)cc2)c2ccsc2)CC1 (configuration not stated)
→ 21 | 14
CC(C)(C)OC(=O)N1CCN(S(=O)(=O)c2ccc(F)cc2)CC1
→ -4 | -9
CC(C)(C)N(Cc1ccsc1)C(=O)CS(C)(=O)=O
→ 7 | 2
Cc1ccc(Cc2nsc(N3CCC(CNC(=O)c4ccc(C(F)(F)F)cc4)CC3)n2)cc1
→ 19 | 21
CC(C)c1nnc(NC(CCO)c2cccs2)s1 (configuration not stated)
→ 3 | 3

A second format for part of the listing above.
Molecule	NPYLR7 ag	NPYLR7 ag max-min
Cc1ccccc1C1=NC(C)(CC(=O)NCc2ccccc2)ON1C (configuration not stated)	8	3
Cc1cc2n(n1)CC(CNC1CCN(Cc3ccncc3)CC1)CN2 (configuration not stated)	4	4
COc1ccc(C(=O)N2CCN(CC(OCc3cccc(C)c3)c3ccc(Cl)cc3)CC2)c(OC)c1 (configuration not stated)	2	-1

The list goes on.
Each structure is followed by: NPYLR7 ag | NPYLR7 ag max-min
CC(=O)c1cc(CN(C)Cc2cc(C(C)(C)C)n[nH]2)cs1
→ 9 | 39
O=C1NC(=O)C(c2ccc(F)cc2)N1 (configuration not stated)
→ 7 | 3
CSc1ccccc1C(=O)NCc1c(C)ncc2c1CCN(C(=O)c1sccc1C)C2
→ 18 | 5
O=S(=O)(c1ccsc1)N1CCC(n2cc(CCO)nn2)CC1
→ 8 | 11
COc1ccc(C)c2sc(N(CCCn3ccnc3)C(=O)c3cccs3)nc12
→ -10 | -14
O=c1c2ccccc2sn1CN1CCCCC1c1nc2ccccc2s1 (configuration not stated)
→ -3 | -1
CCN(CCNC(=O)CC(NC(C)=O)c1cccs1)c1ccccc1C (configuration not stated)
→ 2 | 0
C=CCSc1nnc2c(n1)OC(c1ccsc1)Nc1ccccc1-2 (configuration not stated)
→ 4 | 0
COc1ccc(C(=O)Nc2cnn(C(C)(C)C)c2)c(O)c1
→ 1 | -4
Cc1cc(N2CCN(C(=O)c3cn(CCN4CCCCC4)nn3)CC2)cc(C)n1
→ 10 | 5
CCn1nnc2c(SC)ncnc21
→ 1 | 19
CCn1c(CC2CCN(Cc3ccc(N(C)C)nc3)CC2)n[nH]c1=O
→ 0 | 3
CCS(=O)(=O)N1CCN(C(=O)c2ccc3nc(C)c(N(C)C=O)n3c2)CC1
→ 16 | 15
COc1ccc(Cl)cc1NC(=O)c1ccc(N2CCCC2=O)cc1
→ 5 | 8
CN(Cc1nc(-c2cccnc2)no1)CC(C)(C)N1CCOCC1
→ 1 | -9
CCOC(=O)N1CCC(NC(=O)C2CCCCC2C(=O)N2CCN(c3ccc(OC)cc3)CC2)CC1 (configuration not stated)
→ -6 | -11
COc1ccc(C(NC(=O)C2CCN(CCCc3ccccc3)CC2)c2ccccc2C)cn1 (configuration not stated)
→ -5 | -9
CC(C)N1C(=O)C(=Cc2ccc([N+](=O)[O-])cc2)SC1=S
→ 5 | 2
C=CCn1c(SCC(=O)Nc2ccc(C)cc2)nc2scc(-c3ccco3)c2c1=O
→ -1 | -5
CN1CC2(CCCN(C(=O)CCc3ccccc3F)CC2)OC1=O (configuration not stated)
→ 5 | 3
Cc1ccsc1CN(Cc1ccccn1)C(=O)CN1CCCCCC1=O
→ 6 | 4
Cc1cc2nnc3c(N)c(C#N)c(N)nc3n2n1
→ -7 | -5
CCOC(=O)CNS(=O)(=O)c1cc(-c2nnc(Nc3ccccc3C)c3ccccc23)ccc1C
→ -17 | -22
COc1cccc(NC(=O)Nc2ccc(-c3csc4nc(C)cc(=O)n34)cc2)c1
→ -4 | -3
Cc1cc(C)c(S(=O)(=O)NNC(=O)Nc2ccccc2)c(C)c1
→ -3 | -3
Cc1cc(N(C)C)ccc1NC(=O)CNC(=O)C1CC1C (configuration not stated)
→ -2 | -6
Cc1nccc(-c2cccc(NC(=O)C3CNCC(=O)N3)c2)n1 (configuration not stated)
→ 8 | -1
CN(CCc1ccccc1)C1CCCN(C(=O)CSc2ncn[nH]2)C1 (configuration not stated)
→ 2 | 15
O=C(NCCCN1CCOCC1)c1ccc(-c2cc(-c3cccc4ccccc34)[nH]n2)cc1
→ -2 | 7
CC(C(N)=O)N1CC=C(CNC(=O)C23CC4CC(CC(C4)C2)C3)CC1 (configuration not stated)
→ -1 | -6
CCOc1ccc(C(=O)Oc2coc(CSc3nccn3C)cc2=O)cc1
→ -3 | -7
CCOC(=O)N1CCC(NC(=O)C2CC23CCN(C(=O)c2cc4ccccc4n2C)CC3)CC1 (configuration not stated)
→ 13 | 3
CCCC(NC(=O)c1csc(C(C)=O)c1)c1ccccc1 (configuration not stated)
→ 3 | -4
Cc1ccc(S(=O)(=O)c2cnc(SCC(=O)Nc3ccc(C)c(C)c3)[nH]c2=O)cc1
→ -12 | -11
FC(F)(F)c1ccccc1/C=N\Nc1nc(N2CCCCC2)nc(N2CCOCC2)n1
→ -5 | -8
C=CCN(Cc1ccccc1F)Cc1c(C)noc1C
→ 1 | -2
O=C(Nc1ccccn1)C1CCCN(C(=O)Cc2ccccc2)C1 (configuration not stated)
→ -9 | -10
O=C(CC/C=C/c1ccccc1)N(Cc1ccccc1)CC(F)F
→ 3 | 0
CCCCCCn1c(=O)c2c(nc3n2CCN3c2ccc(Cl)cc2)n(C)c1=O
→ 3 | 7
COc1cc(C(=O)NNC(=O)COc2ccccc2)cc(OC)c1OC
→ -5 | -9
CC(=O)NC1(C(=O)Nc2cc(F)c(N(C)C)c(F)c2)CCC(C)CC1 (configuration not stated)
→ 5 | 5
Cc1cc(C)n2c(NCc3ccccc3)c(-c3cccc(Cl)c3)nc2c1
→ -2 | 5
O=C(CSc1nnc(-c2cccnc2)o1)c1ccc([N+](=O)[O-])cc1
→ -7 | -10
Oc1cccc(-c2ccc(NC3CCCC3)nn2)c1
→ 1 | -2
COCCN(CC(=O)N(CCc1ccc(OC)c(OC)c1)Cc1cccs1)C(=O)CC(C)CC(C)(C)C (configuration not stated)
→ 10 | 19
CC1CCCC(C)N1C(=O)CS(=O)(=O)Cc1cc(=O)n(C)c(=O)n1C (configuration not stated)
→ 1 | -3
Cc1cccc(Cn2c(=O)c3c(nc4oc(C(C)(C)C)cn43)n(C)c2=O)c1
→ 5 | 10
Cc1cccc(NC(=O)N(CC(=O)Nc2cc(C(C)(C)C)nn2-c2ccc(C)cc2C)Cc2ccccc2)c1
→ -2 | 1
O=C(/C=C/c1c(Cl)cccc1Cl)Nc1nn[nH]n1
→ 4 | 11
Cc1cc(NC(=O)C2CCCN(S(=O)(=O)N3CCC(C)CC3)C2)no1 (configuration not stated)
→ 0 | -3
CCOC(=O)c1ccc(S(=O)(=O)NCCn2ncccc2=O)cc1
→ 3 | 0
CC(C)c1nc(-c2cccc(-n3cnnc3)n2)n(-c2cccc3cccnc23)n1
→ 2 | 5
CCN(CC)C(=O)c1c(C(F)(F)F)nn(C2CCCN(C(C)C)C2)c1C (configuration not stated)
→ 9 | 2
Cc1cccc(C(=O)N2CCN(c3ccc(-n4cccn4)nn3)CC2)c1
→ 5 | 6
Cc1ccnc(N2CCN(C3CCC4(CCNCC4)CC3)CC2)c1
→ 5 | 3

Screening data (PubChem)

A portion of the library; the hit share may differ from the screen's.
